# Calb FLC: C. albicans growth inhibition with fluconazole, primary screen, CaCi-2 strain, Alamar Blue fluorescence; C. albicans CaCi-2 (fluconazole-resistant clinical isolate) + fluconazole, 48 h; growth inhibition, % (test concentration not listed); actives 0.57% (n = 300,000); AID 1979, 2009;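 active means most replicates above 75%; inconclusive means exactly half above 75%; inactive means most below 75%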;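 further: all wells also contain fluconazole at 8 µg/ml as a sub-toxic cotreatment; 0% = median of DMSO wells and 100% = median of geldanamycin control wells; wells of about 8 µL received 7.5 nL stock; the first replicate is given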
# Ecoli rRNA inh: reduced GFP signal of wild-type E. coli, primary screen, bacterial rRNA inhibitor project, GFP/RFP fluorescence, OD600, single point; E. coli WT GFP vs humanized-ribosome RFP mutants, 24 h; active compounds read low; DMSO median 0, no signal -100; AID 720706, 2013; GFP signal change (wild-type ribosome), % (test concentration not listed); actives 1.6% (n = 350,000);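 active means significant combined selectivity score with lowered wild-type GFP, culture density cut under 30%, mutant RFP and density less affected; inactive means any of these conditions unmet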; further: one replicate is shown; some compounds called inactive have numbers as strong as hits
# RanGTP-Impb inh: inhibitors of RanGTP-importin-beta interaction, primary screen, biochemical, FRET, CFP-Ran, YFP-importin-beta, homogeneous; Ran GTPase (GTP-bound) - importin-beta complex; cell-free CFP-Ran/YFP-importin-beta FRET ratio; inhibition, % (test concentration not listed); actives 1.1% (n = 300,000);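 active means most replicates above 15%; inconclusive means exactly half above 15%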;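 further: 0% = DMSO wells and 100% = Ran loaded with GDP instead of GTP; wells of about 40 µL received 100 nL stock; the first replicate is given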
# FGF22 binding: binders of human FGF22 protein, primary screen, FGF22 synaptogenesis inhibitor project, biophysical, thermal shift, single point | Fibroblast growth factor 22 (Homo sapiens), Q9HCT0 | recombinant FGF22 thermal shift, SYPRO orange fluorescence; percent of sucrose octasulfate shift, DMSO zero | calls only at 9.99 µM | actives 1.5% (n = 340,000);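 active means melting point raised past a set limit in the mean and every replicate; inconclusive means no clear call; three in four hits are not shown here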
# Target sequence (Q9HCT0 whole entry, looked up): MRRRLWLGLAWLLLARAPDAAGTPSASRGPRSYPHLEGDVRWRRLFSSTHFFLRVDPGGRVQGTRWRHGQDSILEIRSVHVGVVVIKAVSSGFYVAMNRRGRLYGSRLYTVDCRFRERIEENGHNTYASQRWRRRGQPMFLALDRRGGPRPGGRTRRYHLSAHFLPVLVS
# Beta cell apopt: inhibitors of cytokine-induced beta cell apoptosis, primary screen, luminescence. INS-1E cytokine-induced death, ATP luminescence, 48 h; percent of positive-control rescue, neutral wells zero. actives 0.8% (n = 300,000). protection from apoptosis, % (no concentration beside the values);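 active means all replicates at 75% or more, or half of them and the mean; inconclusive means half reach 75% but not the mean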;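 further: 0% = cytokine-treated negative control wells and 100% = positive control rescue; higher means more ATP so stronger rescue from cytokine killing; wells of about 40 µL received 100 nL stock; the first replicate is given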
# AF4-AF9 inh: inhibitors of AF4 peptide binding to AF9, primary screen, biochemical, AlphaScreen, biotin-AF4 peptide, FLAG-AF9, single point; inhibition, % at 10 µM; actives 0.47% (n = 350,000);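 active means every replicate reaching a set inhibition limit, whatever the replicate mean, cut at about 25% in these data; inconclusive means mean inhibition reaches that limit but some replicates miss it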;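 further: 0% = plate neutral control median and 100% = total signal loss; the record names both 10 and 1 µM as test concentration; the first replicate is given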
# Target sequence (P42568 whole entry, looked up): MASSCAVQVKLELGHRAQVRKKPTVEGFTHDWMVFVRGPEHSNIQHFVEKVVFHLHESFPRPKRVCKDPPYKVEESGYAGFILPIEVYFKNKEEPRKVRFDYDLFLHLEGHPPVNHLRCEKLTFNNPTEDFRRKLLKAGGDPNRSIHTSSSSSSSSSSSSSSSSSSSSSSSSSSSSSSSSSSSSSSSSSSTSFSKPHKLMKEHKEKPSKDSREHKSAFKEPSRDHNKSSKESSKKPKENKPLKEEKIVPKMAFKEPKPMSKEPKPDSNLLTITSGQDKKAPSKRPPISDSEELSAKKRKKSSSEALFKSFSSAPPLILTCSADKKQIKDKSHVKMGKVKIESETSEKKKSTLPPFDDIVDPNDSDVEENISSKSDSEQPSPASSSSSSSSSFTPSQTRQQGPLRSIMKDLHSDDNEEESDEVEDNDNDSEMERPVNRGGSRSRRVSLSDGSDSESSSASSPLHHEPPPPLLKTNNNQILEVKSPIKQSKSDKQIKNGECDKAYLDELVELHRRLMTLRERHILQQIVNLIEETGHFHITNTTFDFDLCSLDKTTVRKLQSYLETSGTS
# ALR inh: inhibitors of human ALR sulfhydryl oxidase, primary screen, biochemical, H2O2 detection, HRP-luminol luminescence, single point | purified ALR, DTT oxidation | inhibition, % (test concentration not listed) | actives 3.8% (n = 290,000) | AID 485317, 2010;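 active means mean and each replicate at 75% or more; inconclusive means only one of the two met; inactive means neither met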;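 further: stock transfer was 7.5 nL into about 7.5 µL; 0% = neutral wells and 100% = wells with inactivated enzyme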
# Target sequence (P55789 whole entry, looked up): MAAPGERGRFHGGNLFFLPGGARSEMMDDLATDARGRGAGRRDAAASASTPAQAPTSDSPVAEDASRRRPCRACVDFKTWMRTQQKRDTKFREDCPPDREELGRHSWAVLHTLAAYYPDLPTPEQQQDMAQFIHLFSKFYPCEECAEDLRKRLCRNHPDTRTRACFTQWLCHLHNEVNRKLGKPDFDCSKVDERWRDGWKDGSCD
# T cruzi inh: inhibitors of intracellular T. cruzi growth, primary screen, luminescence, NIH3T3 host cells; actives 1.4% (n = 300,000); AID 1885, 2009; inhibition, % (concentration not given with the values); T. cruzi beta-gal in NIH3T3, 90 h;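 active means mean inhibition across valid replicates above about 55%, limit read from the data; inconclusive means mean below that limit but half or more replicates reach it; inactive means mean below it, under half of replicates reach it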;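 further: signal also drops with host cell toxicity which is not excluded here; 0% = plate median of DMSO wells and 100% = zero luminescence signal; higher percent means less beta-gal luminescence so fewer parasites; stock transfer was 50 nL into about 50 µL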
# Ecoli rRNA inh OD600: second read-out of Ecoli rRNA inh, no call of its own (marks repeat the call); OD600 change, %; measured here: OD600 growth;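 optical density of the mix in the first replicate; 0 = DMSO median and -100 = no signal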
# Ecoli rRNA inh RFP: further read-out of Ecoli rRNA inh, marked with its call; RFP signal change, %; measured here: RFP humanized mutant strains;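 first replicate; 0 = DMSO median and -100 = no signal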
# Starred values were filed as active, the others as inactive; i = inactive; ? = inconclusive; / = not tested or not shown. These rows are one share of the data; rates above refer to the full screens.
compound	Calb FLC	Ecoli rRNA inh	Ecoli rRNA inh OD600	Ecoli rRNA inh RFP	RanGTP-Impb inh	FGF22 binding	Beta cell apopt	AF4-AF9 inh	ALR inh	T cruzi inh
COc1ccc(-c2noc3c2-c2nc(-c4ccc(Br)cc4)sc2CC3)cc1	11	/	/	/	2.2	/	2	/	-4	-17
CC(C)N1CCN(Cc2cccc(-n3cccn3)c2)CC1CCO (centres undefined)	1	5	8	4.7	-1.4	i	-1	-1.1	-1	3
Cn1nc(C(=O)Nc2ccc3c(c2)OCCO3)cc1C(=O)O	-3	/	/	/	-4.9	/	20	/	-10	6
CCN(CC(=O)NCc1ccc(F)cc1)CC(=O)Nc1ccc(S(=O)(=O)N2CCCC2)cc1	-6	-5	-4	-2.7	17*	/	-4	0.7	-3	9
O=c1c(Cc2ccc(Cl)cc2Cl)c(O)ccn1Cc1ccncc1	?	-35*	-27*	-3.7*	-1.8	i	-2	-2.0	/	-2
Cc1cc(C)n(CC(=O)N/N=C/c2cc(Br)cc([N+](=O)[O-])c2O)n1	?	5	2	2.3	-0.8	i	-2	-3.5	6	65*
O=C(CCSc1ccccc1)Nc1ccc(OCc2ccccc2)cc1	-22	/	/	/	-3.7	/	3	/	-24	17
O=c1cc(CSc2nc(NCc3ccccc3)c3ccccc3n2)nc2ccc(Cl)cn12	7	-32*	-17*	-9.7*	2.7	i	-32	2.9	51	-1
O=C(CNS(=O)(=O)c1ccc(F)c(Cl)c1)NCCc1ccccc1	-11	21	16	4.1	-2.5	i	1	-3.4	-14	-7
Cc1ccc2c(c1)NCC(C(=O)NC1CCCCC1)O2 (centres undefined)	0	/	/	/	3.1	i	-1	0.2	5	3
CCCCCCCN=CC1=C(O)CC(c2ccccc2)CC1=O (centres undefined)	1	3	4	-0.5	-3.0	i	-2	-18	-1	-11
CC1(C(=O)Nc2cccc(S(=O)(=O)N3CCOCC3)c2)Cc2ccccc2C(=O)O1 (centres undefined)	-16	-8	-8	-0.2	2.9	i	1	0.4	-9	-3
COc1ccc(CCNC(=O)c2cc([N+](=O)[O-])cc([N+](=O)[O-])c2)cc1OC	6	-2	-7	-2.1	1.1	i	1	-31	-54	46
CC(=O)N1CSCC1C(=O)O (centres undefined)	-2	/	/	/	?	/	5	/	-5	-17
O=C(Cc1cccs1)N1CCN(C(=O)C2CCCO2)CC1 (centres undefined)	1	/	/	/	1.0	/	-5	/	-8	-7
S=c1[nH]nc(CCc2ccccc2)n1-c1ccc(Cl)cc1	?	-44	-70	-15	0.1	/	3	-12	38	-4
CCN(CC)S(=O)(=O)c1cccc(C(=O)N/N=C/c2ccccc2OCC(=O)O)c1	-6	4	-4	-0.3	2.5	i	-7	0.6	4	-11
CC(C)CC(=O)Nc1nnc(S(=O)(=O)N(C)Cc2ccco2)s1	8	/	/	/	-2.2	/	1	/	-3	-4
CC(=O)c1c(Nc2ccccc2)sc(C(=O)c2ccccc2)c1C	-1	/	/	/	-0.1	/	1	/	-17	25
C=CCN1C(=O)C(=O)N(Cc2nc3ccccc3s2)C1=O	-1	9	2	1.6	0.1	i	-2	-3.1	/	-10
Cc1onc(-c2ccccc2)c1C(=O)Nc1nnc(C(C)C)s1	3	0	-7	-2.4	7.5	i	-2	-2.0	3	-1
CCn1cc(C(=O)N2CCCC2)c(=O)c2cc(S(=O)(=O)N3CC(C)CC(C)C3)ccc21 (centres undefined)	1	0	3	-2.6	7.6	i	-3	-1.2	-2	-7
CCS(=O)(=O)NCc1csc(-c2ccccc2)n1	-2	2	1	-5.7	-1.3	i	-1	-6.2	-1	5
CC1CN(C/C(=N\O)C23CC4CC(CC(C4)C2)C3)CC(C)O1 (centres undefined)	-13	2	3	1.2	2.8	i	-6	2.5	-1	0
CC#CCN1c2ccccc2[C@]23C[C@@H](C(=O)OC)N(C(=O)OCC)C2=NC(C(=O)OC)=C(C(=O)OC)[C@H]13	6	11	5	4.3	3.4	i	-4	4.4	3	-10
O=C(CSc1ncccn1)Nc1ccccc1	-13	/	/	/	-4.4	/	-4	/	-10	0
CC(C)(C)Nc1nc2ccc([N+](=O)[O-])cc2o1	-20	-6	-8	12	0.4	i	2	-1.1	/	9
COc1cccc(Cn2nnc(C(=O)NCc3ccccc3Cl)c2N)c1	16	-16	-26	-1.6	-5.1	i	-4	-2.5	-7	8
Cc1ccc(-n2nc3c(Cl)nnc(C)c3c2C)cc1	27	3	4	0.2	-2.1	i	-3	15	-1	-3
OC(COCC1CC=CCC1)Cn1cnc2ccccc21 (centres undefined)	-18	/	/	/	-1.9	/	2	/	-4	-3

# Further compounds follow.
compound	Calb FLC	Ecoli rRNA inh	Ecoli rRNA inh OD600	Ecoli rRNA inh RFP	RanGTP-Impb inh	FGF22 binding	Beta cell apopt	AF4-AF9 inh	ALR inh	T cruzi inh
CC(=O)c1cccc(NC(=S)NCc2ccccc2)c1	1	-6	-1	-7.8	-2.7	i	-4	-1.9	2	0
COc1ccc(N2C(=O)c3ccc(C(=O)Nc4ccc(NC(C)=O)cc4)cc3C2=O)cc1	-4	11	14	2.5	-0.2	i	-13	-2.6	0	-15
CCCn1c(=N)n(CC(=O)c2ccc(OCC(=O)OC)cc2)c2ccccc21	-1	/	/	/	0.1	i	2	-2.5	1	3
CC(C)(CCl)C(=O)Nc1ccc(OC(F)(F)F)cc1	-36	-8	-2	-3.3	?	i	/	2.1	-2	11
Cc1nonc1OC(C)CNc1ccc([N+](=O)[O-])cc1 (centres undefined)	14	/	/	/	5.6	/	0	/	-4	-2
CCCc1cc2c(cc1NC(=O)c1ccc(Br)cc1)OCO2	-7	/	/	/	-0.8	/	4	/	-21	15
CC(=O)c1cccc(S(=O)(=O)NCC(C)(C)N2CCOCC2)c1	8	2	7	-3.2	-1.3	i	/	0.0	2	2
COc1ccc(N2CCN(C(=O)c3ccc(Cl)c(S(=O)(=O)N4CCCC4)c3)CC2)cc1	17	-11	-12	4.3	-2.4	i	-5	8.2	11	2
CCn1c(SCC(=O)NCC2CCCO2)nc2ccccc21 (centres undefined)	/	-3	2	-0.7	/	i	-5	-1.9	/	/
O=C(O)CCS(=O)(=O)c1ccc(-c2ccccc2)cc1	-6	/	/	/	1.3	i	-1	-1.1	-3	6
CC(C)(C)c1ccc(C(=O)Nc2ccccc2Cl)cc1	-5	-20	-12	-2.0	0.2	i	3	-3.5	-15	19
COc1ccc(Cl)cc1Nc1nc(-c2sc(NC(=O)CC(C)C)nc2C)cs1	4	3	16	7.7	-3.0	i	-2	-36	-15	21
C/C(C=O)=C/c1ccccc1	/	5	4	1.8	/	i	0	/	-16	/
COC(=O)c1ccc(C)c(NC(=O)c2c(-c3ccccc3)noc2C)c1	-5	/	/	/	-2.8	/	6	/	-3	10
CCN(CC(=O)NCc1cccs1)C(=O)c1cccc(S(=O)(=O)Nc2ccccc2Cl)c1	18	-8	-9	0.6	5.5	i	5	-8.9	/	8
COc1cc2c(cc1NC(=O)COc1ccc3ccccc3c1)oc1ccccc12	-7	/	/	/	1.7	/	0	/	/	10
c1coc(CNc2nc3sc4c(c3c3ncnn23)CCCC4)c1	-1	/	/	/	1.9	/	-3	/	/	8
COc1ccc(NC(=O)c2cc(C3CC3)on2)c(OC)c1	-3	-4	-14	-1.1	-1.9	i	-1	1.0	-2	9
CSCCC(NC(=O)c1ccc(Cl)cc1)C(=O)OCC(=O)NCc1ccco1 (centres undefined)	3	2	3	0.0	1.5	i	-4	-3.8	0	-10
C=CCn1c(SCC(=O)N(C)CC(=O)Nc2ccc(C)cc2)nnc1-c1ccncc1	/	11	12	-0.8	/	i	0	-1.7	-2	/
COc1ccc(N2CC(C(=O)Nc3cccnc3)CC2=O)cc1 (centres undefined)	3	15	-1	-2.2	8.7	i	/	-0.7	-4	-5
O=C(/C=C/c1ccc(F)cc1)NCCC1=CCCCC1	51	/	/	/	-3.0	/	5	/	/	28
CC1CCN(C(=O)Cn2c(=O)n(-c3ccc(F)cc3)c(=O)c3sccc32)CC1	3	5	5	0.0	3.1	i	5	-1.5	/	-15
Cc1c(C(=O)Nc2cccc([N+](=O)[O-])c2)cnn1-c1ccccc1	-13	-8	0	0.7	?	i	/	8.9	0	-8
CN(CCO)S(=O)(=O)c1ccc2c(c1)C(=NNC(N)=O)c1cc(S(=O)(=O)N(C)CCO)ccc1-2	4	8	9	5.5	-6.7	i	-2	-8.5	-5	0
S=C(Nc1ccccc1)N1CCCCCC1	-3	/	/	/	3.4	/	4	/	-5	-3
O=C(c1cccc(S(=O)(=O)N2CCN(c3ccc(F)cc3)CC2)c1)N1CCCCCCC1	-29	-6	-33	2.8	1.8	i	10	-31	-3	-26
CCOC(=O)N1CCN(C(=O)c2oc3ccc(S(=O)(=O)N4CCCCC4)cc3c2C)CC1	-23	/	/	/	-5.2	/	-1	/	-1	-5
O=C(c1ccc2c(c1)N(Cc1ccccc1F)C(=O)c1ccccc1S2)N1CCOCC1	2	-12	-8	7.6	0.0	i	-6	4.0	-1	29
O=C(CN1C(=O)c2ccccc2S1(=O)=O)Nc1ccccn1	0	1	4	-2.5	-0.8	i	0	-2.3	4	-16

# Three compounds already listed, arranged by formula weight, rising.
compound	Calb FLC	Ecoli rRNA inh	Ecoli rRNA inh OD600	Ecoli rRNA inh RFP	RanGTP-Impb inh	FGF22 binding	Beta cell apopt	AF4-AF9 inh	ALR inh	T cruzi inh
C/C(C=O)=C/c1ccccc1	/	5	4	1.8	/	i	0	/	-16	/
Cc1nonc1OC(C)CNc1ccc([N+](=O)[O-])cc1 (centres undefined)	14	/	/	/	5.6	/	0	/	-4	-2
CSCCC(NC(=O)c1ccc(Cl)cc1)C(=O)OCC(=O)NCc1ccco1 (centres undefined)	3	2	3	0.0	1.5	i	-4	-3.8	0	-10

# Continuation.
compound	Calb FLC	Ecoli rRNA inh	Ecoli rRNA inh OD600	Ecoli rRNA inh RFP	RanGTP-Impb inh	FGF22 binding	Beta cell apopt	AF4-AF9 inh	ALR inh	T cruzi inh
CN(C)CCn1c2c(c(SCC(=O)Nc3cccc4ccccc34)nc1=O)CCC2	3	2	1	2.8	-2.4	i	-6	0.2	14	27
CCNC(=O)CSc1nnc(-c2cccc(S(=O)(=O)N(CC)CC)c2)n1CCc1ccccc1	-20	0	-3	-0.2	-11	/	-8	/	3	11
O=C(Nc1nsc(-c2ccccc2)n1)c1ccc(F)cc1	-17	2	-7	-1.9	-1.6	i	-6	-1.0	/	-4
COc1ccc(C2CC(c3cc(Br)ccc3F)n3nnnc3N2)cc1 (centres undefined)	-1	/	/	/	2.1	/	-7	/	-8	3
CC(C)C1N(c2ccccc2)C(N)=C(C#N)C1(C#N)C#N (centres undefined)	-3	/	/	/	0.7	/	-3	/	2	-4
O=C(O)c1cccc(NC(=O)c2ccc(S(=O)(=O)c3ccccc3)cc2)c1	-8	5	4	-4.1	2.2	i	4	-1.1	-9	5
